miR-21 FLuc – raises the signal of a miR-21 reporter | HeLa miR-21 FLuc reporter, luciferase, 48 h | Potency, µM (series often up to 38.3 µM), without a hit: at the highest dose reporter change, positive = more light | 340,000 tested, under 10 active; active = well fitted rising curve with a large enough effect; inconclusive = small, poorly fitted or top-dose-only effect; inactive = no such curve, though single readings can be large or run the other way;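 note: % of control where 0% means no effect; miR-21 action dims this reporter so a rising signal means less miR-21 action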
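HeLa cells stably expressing CMV-driven firefly luciferase with a downstream miR-21 binding sequence, endogenously expressing miR-21, were treated with titrations (up to about 40uM final) for 48 hours at 37 degree Celsius. Luciferase luminescence was read after lysis.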
GLA inh pH 4.5 – alpha-galactosidase A (human) inhibition, pH 4.5 | purified enzyme, 4-MU-alpha-Gal fluorescence, pH 4.5 | P06280 | activity change, negative = inhibition, % at 105 µM | 230,000 tested, under 10 active | AID 1467; inconclusive = small, poorly fitted or top-dose-only inhibition, or a rising curve; inactive = flat fitted curve, though single readings scatter; no compound was filed as active;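 note: 0% = full activity with enzyme and -100% = basal without enzyme; dose as in the result columns while the protocol names 77 µM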
Target sequence (P06280 whole entry, looked up): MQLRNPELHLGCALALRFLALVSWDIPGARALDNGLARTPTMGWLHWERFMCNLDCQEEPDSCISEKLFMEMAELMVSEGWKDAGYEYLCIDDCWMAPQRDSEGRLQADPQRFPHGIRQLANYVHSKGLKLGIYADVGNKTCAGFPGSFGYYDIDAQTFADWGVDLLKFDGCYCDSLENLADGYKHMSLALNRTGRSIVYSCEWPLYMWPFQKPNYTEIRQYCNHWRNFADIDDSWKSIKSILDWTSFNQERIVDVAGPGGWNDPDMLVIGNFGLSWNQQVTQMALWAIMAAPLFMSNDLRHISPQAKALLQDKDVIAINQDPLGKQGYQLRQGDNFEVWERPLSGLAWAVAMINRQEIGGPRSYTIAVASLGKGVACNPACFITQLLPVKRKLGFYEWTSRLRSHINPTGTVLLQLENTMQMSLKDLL
Rango-impB inh – prevents formation of the Rango-importin beta complex. AID 540263. Rango CFP/YFP FRET sensor + importin beta, 45 min. 340,000 tested, 0.031% active. Potency, µM (highest dose often 92.2 µM), inactives show at the top dose inhibition of complex formation. Q14974; active = rising FRET ratio curve, often small or poorly fitted; inconclusive = mostly compound fluorescence or quenching in the first reads; inactive = flat curves in all reads;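 note: potency is the fitted concentration of half-maximal effect; 0% = DMSO wells and 100% = buffer wells lacking importin beta; nearly all actives have a fitted effect of over 15% in size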
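Inhibition scored from the CFP 486 nm/YFP 530 nm FRET ratio 45 min after adding 0.125 microM importin beta to 50 nM Rango biosensor preincubated 5 min with compound (room temperature, PBS with DTT, Tween-20, BSA). No-importin wells as positive control.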
Rango release inh – inhibitors of RanGTP-induced Rango-importin beta complex dissociation. O95149+P62826. Biochemical FRET Rango-importin beta, RanGTP-induced dissociation. Potency, µM (series often up to 46.1 µM), for the others: at the highest dose activity change, negative = inhibition. 340,000 tested, 0.071% active. AID 540253; active means falling FRET ratio curve, often poorly fitted, with flat reads before Ran was added; inconclusive means other falling curves, or compound fluorescence or quenching; inactive means flat or rising ratio curve;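 note: potency is the fitted concentration of half-maximal effect; % of control where 0% means no effect; nearly all actives have a fitted effect of over 45% in size; -100% = wells without RanGTP and RCC1; the record marks most hits as doubtful in a second field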
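Two FRET readings bracket the reaction: one 5 min after compound meets Rango–importin beta, another 45 min after RanGTP-RCC1 (0.6 uM Ran, 0.2 uM RCC1, 2 mM GTP) is added. Only the second defines inhibition.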
The depositor's hits bear a star; ? = inconclusive; . = not tested or not shown; & = joins results of further samples. The list is partial; count on the stated rates, not on these rows.

| miR-21 FLuc | GLA inh pH 4.5 | Rango-impB inh | Rango release inh | mol |
| --- | --- | --- | --- | --- |
| -1% | . | -3.0% | 3% | CC(C)CNC(=O)c1cc(=O)[nH]c2ccc(S(=O)(=O)Nc3ccc(F)cc3)cc12 |
| -35% | 3 | 4.1% | 13% | c1ccc(-c2ccc(-n3ccnc3)cc2)cc1 |
| 0% | . | -0.8% | 2% | COC(=O)c1ccc(/C=N/NC(=O)C2CC(=O)N(c3ccc(OC)cc3)C2)cc1 (configuration not stated) |
| -4% | 4 | 0.5% | 1% | O=C1NC(c2ccc3c(c2)OCO3)Oc2ccccc21 (configuration not stated) |
| 0% | . | -5.1% | -6% | O=C(Nc1ccc(S(=O)(=O)NCC2CCCO2)cc1)c1cccc(F)c1 (configuration not stated) |
| -18% | -1 | -0.1% | 5% | COC(=O)c1c(N)c(C#N)c(C)n1-c1ccccc1 |
| -1% | . | 8.6% | -11% | O=C(c1ccncc1)N1CCN(CCc2ccccc2)CC1 |
| -2% | . | -0.8% | 12% | Cc1c(C(=O)N2CCCCC2)c(S(=O)(=O)N2CCC(C)CC2)c(C)n1C |
| 0% | . | -0.9% | -1% | NC(Cc1c[nH]c2ccccc12)C(=O)NCc1ccccc1 (configuration not stated) |
| 23% | 1 | 4.6% | -2% | COC(=O)C1=C(C)N(c2cc(Cl)cc(Cl)c2)C(=O)C1 |
| -4% | 0 | 0.7% | 2% | O=C(NCCCn1ccnc1)c1csc2ccccc12 |
| 0% | -11 | -2.9% | ? | O=C(O)CC1(CC(=O)NCc2cc(F)cc3c2OCOC3)CCCCC1 |
| 4% | . | -5.5% | 39% | COc1ccc(S(=O)(=O)Nc2ccccc2C(=O)N2CCOCC2)cc1Br |
| 2% | . | -14% | -11% | Cn1c(=O)c2sccc2n(Cc2ccc(Br)cc2)c1=O |
| . | . | -2.7% | -13% | COc1cccc(NC(=O)c2ccc(OC(F)(F)F)cc2)c1 |
| 29% | -9 | -2.7% | -11% | Cc1cccc(C2(c3cccc(C)c3)CC2C(=O)Nc2ccc([N+](=O)[O-])cc2O)c1 (configuration not stated) |
| -2% | 6 | 0.5% | 12% | CCOC(=O)N1CCC(N2CCCC(C(=O)c3cc(F)ccc3OC)C2)CC1 (configuration not stated) |
| -1% | 12 | 0.3% | 18% | CC1CCN(CCC(=O)N2CCCc3c2c(=O)oc2ccc(O)cc32)CC1 |
| -3% | -1 | -0.6% | -7% | Cc1noc(C(=O)Nc2cccnc2)c1Cl |
| 0% | 1 | -0.9% | 9% | O=C(CNC(=O)c1ccco1)NCC(=O)OCc1ccc(C(=O)Oc2ccc(Cl)cc2)cc1 |
| -4% | . | -3.1% | 52% | CCOc1ccccc1C(=O)NC1CCN(CC(=O)Nc2cc(OC)ccc2OC)CC1 |
| . | . | 4.4% | -23% | O=C(O)C1CC=CCC1C(=O)NCc1ccc(Cl)c(Cl)c1 (configuration not stated) |
| -25% | -4 | 1.6% | 14% | S=C1NC2(CCCCC2)NN1c1ccccc1 |
| . | . | ? | ? | C#Cc1ccc([C@H]2C=C(C(=O)NCc3nc4ccccc4[nH]3)O[C@@H](OCc3ccc(CO)cc3)C2)cc1 |
| -2% | 4 | 0.5% | 13% | COc1ccc(F)cc1S(=O)(=O)NCc1ccccc1 |
| -6% | -1 | -2.8% | -16% | O=S(=O)(NCC(c1cccnc1)N1CCN(c2ccccc2)CC1)c1cc(F)ccc1F (configuration not stated) |
| -8% | 2 | -3.8% | -24% | CNC(=O)C1CCC(=O)N1Cc1ccccc1Cl (configuration not stated) |
| 1% | 1 | 1.4% | -9% | C/C(=N\N=C(/N)SC1CC(=O)N(c2ccc(Br)cc2)C1=O)c1cccs1 (configuration not stated) |
| 1% | -7 | 1.3% | 17% | O=C(NNc1ccc([N+](=O)[O-])cc1)c1ccccc1Cl |
| -9% | 4 | ? | ? | Cc1cc(-c2cccs2)c2c(N)c(C(=O)c3ccc4c(c3)OCO4)sc2n1 |
| -20% | -7 | -0.4% | 4% | O=C(CSc1nnc(CCCN2C(=O)c3cccc4cccc(c34)C2=O)n1-c1ccccc1)N1CCN(CCO)CC1 |
| -24% | -26 | 0.0% | 0% | COC(=O)c1sc(NC(=S)NC(=O)c2ccc(C)cc2)nc1C |
| 0% | 4 | -0.2% | -7% | CCO[C@H]1OC(C(=O)O)=C[C@@H](C2CCCCC2)[C@@H]1CCCO |
| -5% | . | -0.2% | 3% | Cc1cccc(C)c1N1CCN(C(=O)c2ccc3c(c2)OCO3)CC1 |
| -3% | -5 | -0.5% | -5% | C[C@@H](O)[C@@H]1NC(=O)c2cc([N+](=O)[O-])cc(I)c2NCC[C@@H](C(N)=O)NC(=O)CNC1=O |
| -30% | . | -0.9% | 6% | COc1ccc(NC(=S)N2CCC(c3ccc(C)cc3)C2)cc1 (configuration not stated) |
| . | . | -3.0% | 18% | COc1ccc(CCNC(=O)C(=O)NCC2CCCN2S(=O)(=O)c2ccccc2)cc1 (configuration not stated) |
| -10% | -6 | 9.4% | -18% | COc1ccc(OC)c(NC(=O)CC2SC(=Nc3ccccc3)N(CCc3ccccn3)C2=O)c1 (configuration not stated) |
| 15% | -1 | 0.1% | 16% | CCOC(=O)C1=C(C)Nc2ncnn2C1/C=C/c1ccccc1 (configuration not stated) |
| 3% | 4 | -2.2% | -4% | CC(C)n1nnnc1-c1cccc(Cl)c1 |
| -7% | . | 0.1% | -16% | O=c1ccc2cc(S(=O)(=O)NCCCc3ccccc3)ccc2[nH]1 |
| 7% | -9 | ? | -12% | N#C/C(=C(/O)C(Cl)(Cl)Cl)c1nc2ccccc2[nH]1 |
| . | . | 2.9% | 15% | O=C(Nc1ccccc1)Nc1ccc(Cl)nc1Cl |
| . | . | 2.5% | -10% | CN(C(=O)CSc1nc2ccccc2[nH]1)C1CCS(=O)(=O)C1 (configuration not stated) |
| -41% | -4&1 | 0.8% | 16% | C[C@@H]1C=C[C@](Cc2ccccc2)(C(=O)NCC2CC2)N1C(=O)c1ccccc1 |
| -3% | 11 | -2.4% | -12% | CC1CC(Nc2ccccc2)=NC1(C)C (configuration not stated) |
| . | . | -1.6% | -1% | O=C(NNC(=O)c1cc(-c2ccc(Br)cc2)nc2ccccc12)c1csc(N2CCOCC2)n1 |
| ? | 2 | 5.4% | -9% | CC(=O)Nc1cc(OC(C)=O)c2nonc2c1OC(C)=O |
| -2% | 14 | . | . | O=C(CN1CCOCC1)N1CCN(c2ccc3ccccc3n2)CC1 |
| -18% | -7 | 3.0% | 12% | N#C/C(=C\Nc1ccc2c(c1)OCCO2)C(=O)NCc1ccco1 |

(more compounds)
| miR-21 FLuc | GLA inh pH 4.5 | Rango-impB inh | Rango release inh | mol |
| --- | --- | --- | --- | --- |
| -4% | -4 | -3.3% | 0% | COc1cccc(NC(=O)CN(C)C(=O)COc2ccc3ccccc3c2)c1 |
| -3% | 5 | ? | ? | CCN1CCN(c2nc3ccccn3c(=O)c2/C=C(\C#N)S(=O)(=O)c2ccccc2)CC1 |
| 3% | . | -3.8% | 17% | O=C(c1ccccc1N(Cc1ccccc1)S(=O)(=O)c1ccccc1)N1CCOCC1 |
| -1% | -10 | -0.3% | -11% | CCOC(=O)C1CCN(c2c(NCc3ccc(C(=O)NCCOC)cc3)c(=O)c2=O)CC1 |
| -6% | -8 | -1.8% | -9% | CCOC(=O)c1ccc(NC(=O)CC2SC(=NC)N(C)C2=O)cc1 (configuration not stated) |
| -7% | 7 | 3.4% | 7% | O=C(CSc1nnc(-c2ccc(Cl)cc2)n1Cc1ccco1)NCc1ccc2c(c1)OCO2 |
| -2% | 3 | -0.6% | 1% | NC(=S)Nn1c(-c2ccccc2)nc2ccccc2c1=O |
| -4% | . | 5.3% | 6% | O=C(CSc1nnc(-c2ccc(F)cc2)n1CC1CCCO1)NCc1ccco1 (configuration not stated) |
| -7% | 6 | -5.1% | 6% | CC1CCCN(C(=O)CN2CCN(C(=O)c3ccco3)CC2)C1 (configuration not stated) |
| -17% | 1 | 7.4% | 9% | COc1ccccc1N1CCN(C(=O)C(=O)N/N=C/c2cccc(O)c2)CC1 |
| -3% | 2 | -1.0% | 15% | CCC(=O)N1c2ccccc2NC2=C(C(=O)CC(c3ccco3)C2)C1c1ccco1 (configuration not stated) |
| -17% | -11 | 0.7% | 4% | Cc1sc2nc(CSc3ccccc3)nc(NCCN(C)C)c2c1C |
| . | . | -1.1% | 12% | Cc1cccnc1NC(=O)c1ccc(S(=O)(=O)NCc2ccco2)cc1 |
| 1% | -6 | 0.9% | 8% | O=C(Cn1c(NCCO)nc2ccccc21)NCC1CCCO1 (configuration not stated) |
| 0% | . | -0.6% | -21% | CCn1ncc(CN2CCC(Oc3cc(C(=O)NC4CC4)ccc3OC)CC2)c1C |
| -5% | . | -0.7% | -13% | CN(C)CCCNc1ncnc2c1c(-c1ccccc1)cn2-c1ccccc1 |
| 0% | . | 2.0% | 10% | CCOc1ccccc1Nc1cc(C)c2cccc(C)c2n1 |
| 4% | . | 1.8% | 6% | O=C(COC(=O)c1cccc(Cl)c1Cl)NC1CCCC1 |
| -16% | . | -1.9% | -4% | COc1ccc(N(Cc2cc3ccccc3[nH]c2=O)S(=O)(=O)c2ccc(OC)cc2)cc1 |
| -9% | 6 | -1.8% | 1% | COc1ccc(NC(=O)Nc2cccnc2)c(OC)c1 |
| -5% | -3 | -0.6% | 0% | Cc1cc([N+](=O)[O-])nn1CC(=O)Nc1ccc(Cc2ccncc2)cc1 |
| -4% | . | -0.9% | 11% | CCNC(=S)N1CCN(CCN2C(=O)c3cccc4cccc(c34)C2=O)CC1 |
| -11% | 5 | -0.2% | -12% | C=CCc1cc(Cl)ccc1OCCNCCCOC |
| -2% | 3 | -2.1% | 0% | COC(=O)c1cc(OC)c(OC)cc1NC(=O)Nc1ccc(OC)cc1 |
| 0% | . | 0.8% | ? | Cc1ccnc(N2CCCC(C(=O)NC3CC3)C2)n1 (configuration not stated) |
| -1% | . | 0.5% | 12% | CCN1CCN(c2nc(NCCO)c3ccccc3n2)CC1 |
| 5% | 1 | 1.9% | -2% | COc1ccc(-n2ccnc2SCC(=O)NC2CCCC2)c(OC)c1 |
| 12% | 4 | -4.6% | -11% | COc1ccc(O)c(C(=O)CC(=O)c2ccc(F)cc2)c1 |
| -2% | -1 | -0.9% | 2% | O=C(/C(=C\c1ccccc1)c1nc2ccccc2[nH]1)c1ccc(Cl)cc1 |
| . | . | -0.8% | -4% | O=S(=O)(c1cccc(Br)c1)N1CCN(S(=O)(=O)c2ccc3c(c2)OCCO3)CC1 |

A second format for part of the listing above.
The line under a structure holds: miR-21 FLuc | GLA inh pH 4.5 | Rango-impB inh | Rango release inh
Cc1cccnc1NC(=O)c1ccc(S(=O)(=O)NCc2ccco2)cc1
    . | . | -1.1% | 12%
O=C(Cn1c(NCCO)nc2ccccc21)NCC1CCCO1 (configuration not stated)
    1% | -6 | 0.9% | 8%
CCn1ncc(CN2CCC(Oc3cc(C(=O)NC4CC4)ccc3OC)CC2)c1C
    0% | . | -0.6% | -21%
CN(C)CCCNc1ncnc2c1c(-c1ccccc1)cn2-c1ccccc1
    -5% | . | -0.7% | -13%
CCOc1ccccc1Nc1cc(C)c2cccc(C)c2n1
    0% | . | 2.0% | 10%
O=C(COC(=O)c1cccc(Cl)c1Cl)NC1CCCC1
    4% | . | 1.8% | 6%
COc1ccc(N(Cc2cc3ccccc3[nH]c2=O)S(=O)(=O)c2ccc(OC)cc2)cc1
    -16% | . | -1.9% | -4%
COc1ccc(NC(=O)Nc2cccnc2)c(OC)c1
    -9% | 6 | -1.8% | 1%
Cc1cc([N+](=O)[O-])nn1CC(=O)Nc1ccc(Cc2ccncc2)cc1
    -5% | -3 | -0.6% | 0%
CCNC(=S)N1CCN(CCN2C(=O)c3cccc4cccc(c34)C2=O)CC1
    -4% | . | -0.9% | 11%
C=CCc1cc(Cl)ccc1OCCNCCCOC
    -11% | 5 | -0.2% | -12%
COC(=O)c1cc(OC)c(OC)cc1NC(=O)Nc1ccc(OC)cc1
    -2% | 3 | -2.1% | 0%
Cc1ccnc(N2CCCC(C(=O)NC3CC3)C2)n1 (configuration not stated)
    0% | . | 0.8% | ?
CCN1CCN(c2nc(NCCO)c3ccccc3n2)CC1
    -1% | . | 0.5% | 12%
COc1ccc(-n2ccnc2SCC(=O)NC2CCCC2)c(OC)c1
    5% | 1 | 1.9% | -2%
